Screening results as filed in PubChem BioAssay.
miR-21 FLuc – miR-21 reporter, rising signal; 340,000 tested, under 10 active; Potency, µM (top dose mostly 38.3 µM), for inactives: top-dose reporter change, positive = more light; HeLa miR-21 FLuc reporter, luciferase, 48 h; active = well fitted rising curve with a large enough effect; inconclusive = small, poorly fitted or top-dose-only effect; inactive = no such curve, though single readings can be large or run the other way;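 also: % of control where 0% means no effect; miR-21 action dims this reporter so a rising signal means less miR-21 action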
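HeLa miR-21-FLuc reporter line, endogenous miR-21; 2000 cells/well in DMEM/10% FBS; compound titration up to ~40uM final, 48 h, 37 degree Celsius; luciferase detection reagent, 15 min lysis, CCD luminescence.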
Rango-impB inh – inhibitors of Rango-importin beta complex formation; Potency, µM (highest dose often 92.2 µM), for inactives: at the highest dose inhibition of complex formation; actives 0.031% (n = 340,000); Rango CFP/YFP FRET sensor + importin beta, 45 min; Q14974; active = rising FRET ratio curve, often small or poorly fitted; inconclusive = mostly compound fluorescence or quenching in the first reads; inactive = flat curves in all reads;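 also: potency is read from the fitted curve at half-maximal effect; 0% = DMSO wells and 100% = buffer wells lacking importin beta; nearly all actives have a fitted effect of over 15% in size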
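FRET biosensor Rango (snurportin 1 IBB between N-terminal EYFP and C-terminal Cerulean), 50 nM in PBS/1 mM DTT/0.02% Tween-20/0.1% BSA, preincubated 5 min RT with compound; 0.125 microM importin beta added, 45 min RT, CFP/YFP FRET ratio read.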
Rango release inh – inhibition of RanGTP-driven Rango-importin beta dissociation. O95149+P62826. Biochemical FRET Rango-importin beta, RanGTP-induced dissociation. Potency, µM (titrated, usually from 46.1 µM), for the others: at the top dose activity change, negative = inhibition. actives 0.071% (n = 340,000). AID 540253; active means falling FRET ratio curve, often poorly fitted, with flat reads before Ran was added; inconclusive means other falling curves, or compound fluorescence or quenching; inactive means flat or rising ratio curve;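 also: potency is read from the fitted curve at half-maximal effect; % of control where 0% means no effect; nearly all actives have a fitted effect of over 45% in size; -100% = wells without RanGTP and RCC1; the record marks most hits as doubtful in a second field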
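Rango (0.1 uM)–importin beta (0.25 uM) complex; RanGTP-RCC1 trigger; 45 min RT; CFP/YFP FRET read.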
GLA inh pH 4.5 – blocks human alpha-galactosidase A at pH 4.5 | P06280 | purified enzyme, 4-MU-alpha-Gal fluorescence, pH 4.5 | activity change, negative = inhibition, % at 105 µM | 230,000 tested, under 10 active | AID 1467; inconclusive = small, poorly fitted or top-dose-only inhibition, or a rising curve; inactive = flat fitted curve, though single readings scatter; no compound was filed as active;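 also: 0% = full activity with enzyme and -100% = basal without enzyme; dose as in the result columns while the protocol names 77 µM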
Target sequence (P06280 whole entry, looked up): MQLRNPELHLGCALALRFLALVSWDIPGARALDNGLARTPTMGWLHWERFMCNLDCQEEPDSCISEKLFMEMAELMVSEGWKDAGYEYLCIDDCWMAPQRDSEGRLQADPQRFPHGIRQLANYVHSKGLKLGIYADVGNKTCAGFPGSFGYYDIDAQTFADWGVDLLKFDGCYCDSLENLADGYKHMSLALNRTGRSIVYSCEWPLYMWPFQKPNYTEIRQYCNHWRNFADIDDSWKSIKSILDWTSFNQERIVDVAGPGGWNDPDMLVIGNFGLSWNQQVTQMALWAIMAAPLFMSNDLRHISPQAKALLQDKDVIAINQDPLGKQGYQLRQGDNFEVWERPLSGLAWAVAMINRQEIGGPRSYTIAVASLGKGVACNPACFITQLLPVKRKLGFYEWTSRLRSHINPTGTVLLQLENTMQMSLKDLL
An asterisk follows results filed as active; u = inconclusive; x = no result given; & = joins results of further samples. Only part of the results is shown. The share of hits here may be higher or lower than overall.

Rango-impB inh	GLA inh pH 4.5	miR-21 FLuc	Rango release inh	Molecule
-2.5%	3	0%	-1%	Cc1ccccc1NC(=O)c1cnn(-c2ccccc2)c1NC(=O)c1ccco1
4.6%	x	-7%	3%	Cc1ccccc1CC(=O)NCCN1CCCCC1
u	3	u	u	O=C(N/N=C/c1cc(Br)cc(Br)c1O)c1ccncc1
u	x	-37%	-18%	Cc1ccc(Nc2ncnc3sccc23)c(C)c1
0.0%	x	-2%	12%	COCCNC(=O)CN(CCc1ccccc1)S(=O)(=O)c1ccc(Br)cc1
u	x	-8%	u	CCN(CC)c1ccc(Nc2cc3n(c(=O)n2)CCc2cc(OC)c(OC)cc2-3)cc1
-3.7%	10	-4%	17%	Cc1cc(C)nc(SCC(=O)Nc2ncc3c(n2)CCCC3=O)n1
0.1%	1	4%	-2%	CCCCC1(CCCC)NC(=S)N(Nc2ccc(C)cc2)C1=O
0.5%	x	x	-13%	COc1ccc2sc(-c3ccc(S(C)(=O)=O)cc3)c(C(=O)NCCc3c[nH]c4ccccc34)c2c1
-0.8%	-12	-1%	0%	FC(F)(F)c1ccc(Cl)c(NC(=S)NC2CC2)c1
0.5%	-16	-28%	11%	O=C(Cn1ncc(N2CCOCC2)c(Cl)c1=O)c1ccc(Cl)cc1
u	-9	0%	0%	O=C(NCc1cccnc1)c1cccn2c(=O)c3sccc3nc12
-5.9%	-11	-9%	-3%	CC(=O)O[C@H]1CC[C@@]2(C)C(CCC3C2CC[C@]2(C)OC(=O)CCC32)C1 (stereo partly specified)
-0.7%	x	-5%	2%	CCCc1cc(CNC(=O)C2CCC(=O)N(Cc3ccccc3F)C2)on1 (stereo unspecified)
1.3%	-3	-35%	2%	C=CCOc1ccc(/C(CC)=N/O)c(OC)c1
-1.1%	x	x	-2%	CC(=O)N1CCc2cc([N+](=O)[O-])ccc21
-5.6%	8	-2%	-6%	O=C(NC1CCCCC1)N1CCc2ccccc2C1
-4.2%	3	-6%	29%	COc1ccc(CNC(=O)C/C(C)=N/NC(=O)Cc2ccc(OC)c(OC)c2)cc1
8.1%	x	u	6%	CC(C)(C)c1ccc(C(=O)Nc2ccc(C(=O)NCc3cccnc3)cc2)cc1
0.4%	-15	-14%	-7%	COCCNC(=O)/C(C#N)=C/c1cc(C)n(C2CCCCC2)c1C

An excerpt from above in order of heavy-atom count, smallest number first:
Rango-impB inh	GLA inh pH 4.5	miR-21 FLuc	Rango release inh	Molecule
-5.6%	8	-2%	-6%	O=C(NC1CCCCC1)N1CCc2ccccc2C1
0.4%	-15	-14%	-7%	COCCNC(=O)/C(C#N)=C/c1cc(C)n(C2CCCCC2)c1C
0.0%	x	-2%	12%	COCCNC(=O)CN(CCc1ccccc1)S(=O)(=O)c1ccc(Br)cc1

Going on with the list.
Rango-impB inh	GLA inh pH 4.5	miR-21 FLuc	Rango release inh	Molecule
0.2%	-7	-1%	1%	Cc1cc(C(=O)NC(=S)Nc2ccccc2N2CCOCC2)ccc1[N+](=O)[O-]
7.8%	1	u	4%	Cc1ccc2c(c1)c1c(n2CC(O)CNC2CCCCC2)CCCC1 (stereo unspecified)
-2.7%	3	-2%	6%	COC(=O)[C@H](CC(C)C)NC(=O)N1CCCCC1
2.3%	x	-1%	-1%	CCOc1ccc(CN(C)C(C)C(=O)NCCc2ccc(F)cc2)cc1 (stereo unspecified)
1.5%	-3	-12%	-9%	CC(C)(C)c1ccc(C(=O)CSc2nc3ccccc3c(=O)[nH]2)cc1
3.9%	x	1%	16%	CCc1c(C(=O)NCCc2cccc(C)c2)[nH]c(C)c1C(C)=O
2.6%	x	x	-8%	Cc1ccc(C(=O)OCC(=O)N(Cc2ccccc2)C(C)C)cc1C
-2.1%	x	2%	-3%	CCOc1ccc(S(=O)(=O)N2CCN(c3ccccn3)CC2)cc1
4.2%	4	-63%	9%	O=C(Nc1cccc(Cl)c1)OCc1ccccn1
1.4%	3	4%	-5%	COc1cc2c(=O)n(Cc3ccccc3)c(=O)n(CC(=O)NCCc3ccccc3)c2cc1OC
0.4%	0	-17%	3%	O=C(COc1ccccc1[N+](=O)[O-])N/N=C/c1ccc(OC(=O)c2ccco2)cc1
-0.8%	x	-2%	6%	O=C(Cc1ccc(O)cc1)N/N=C/c1cccnc1
-2.5%	x	11%	14%	Cc1ccc(S(=O)(=O)Nc2ccc(OCC(=O)N3CCOCC3)cc2)c(C)c1NS(C)(=O)=O
0.1%	7	0%	-3%	CCOC(=O)C1CCN(c2c(NCCCN(CC)c3ccccc3)c(=O)c2=O)CC1
u	-6	0%	u	Cc1ccc(C)c(N2CCN(C(=O)Cc3c(C(=O)O)[nH]c4ccc(Cl)cc34)CC2)c1
x	-2	-55%	x	Cc1ccc(-c2nc(SCC(=O)Nc3ccccc3OC(F)F)c3c(C)c(C(=O)O)sc3n2)cc1
5.7%	x	x	23%	CCN(c1ccccc1C)S(=O)(=O)c1cc2c3c(c1)CCN3C(=O)CC2
0.6%	x	x	6%	Cc1ccc(S(=O)(=O)N2CCCC2CNC(=O)c2ccc(F)c(F)c2)cc1 (stereo unspecified)
-0.6%	x	-3%	-7%	COC(=O)C(CC(=O)c1ccc(C)cc1)n1nc(C)cc1C (stereo unspecified)
0.6%	x	x	-8%	CCc1ccc(OCC(=O)NNC(=O)CNC(=O)c2ccc(Br)o2)cc1

Later entries:
Rango-impB inh	GLA inh pH 4.5	miR-21 FLuc	Rango release inh	Molecule
2.5%	10	-4%	6%	COc1ccc(CCNC(=O)CN2C(=O)c3cccc4cccc(c34)C2=O)cc1OC
0.2%	x	x	2%	CC(=O)C[C@H]1c2cc(F)ccc2S(=O)(=O)N1c1ccc(N(C)C)cc1
0.3%	0	-22%	23%	O=C(Nc1ccc(N2CCOCC2)cc1)C1CC(=O)N(c2ccccc2)C1 (stereo unspecified)
-0.8%	x	x	5%	Cc1ccccc1C=O
-2.3%	-5	0%	6%	CCOC(=O)CSc1nnc([C@@H](NC(=O)OC(C)(C)C)C(C)C)o1
-3.7%	x	-4%	u	COc1cc2c(cc1OC)CN(Cc1ccccc1)CC2
1.5%	x	0%	3%	Cc1nc2ccccc2n1S(=O)(=O)c1ccc(F)cc1
13%	7	1%	-20%	COc1cccc(N(C(=O)CS(=O)CC(=O)Nc2ccc(F)cc2)C(C(=O)NC2CCCCC2)c2cccs2)c1 (stereo unspecified)
5.6%	5	-7%	0%	CCOC(=O)N1CCN(C(=O)c2ccc3c(c2)ncn3C2CCCC2)CC1
0.2%	-11	7%	-6%	O=C(C1=C[C@H](C2CCCCC2)C[C@H](OCCCCO)O1)N1CCN(Cc2ccc3c(c2)OCO3)CC1
-0.6%	x	x	-2%	O=C(N/N=C/c1ccc(F)cc1)c1ccc(-n2cnnn2)cc1
3.4%	-1	-1%	-15%	COc1cc(/C=N/NC(=O)C2CCN(CC(O)COCc3ccccc3)CC2)ccc1O (stereo unspecified)
2.7%	x	0%	21%	O=C(CCn1c(=O)oc2ccccc21)Nc1ccc(C(=O)O)cc1
-0.1%	x	-1%	-5%	Cc1c(Cl)c(C(=O)N2CCCCCC2)nn1C
-3.5%	3	-8%	-5%	FC(F)Oc1ccc(NC(=S)NN2CCOCC2)cc1
2.6%	-7	2%	4%	Nc1nc(SCC(=O)N2CCCCC2)[nH]c(=O)c1NC(=O)c1cccs1
-0.7%	2	-3%	13%	CCC(=O)Nc1cc(C(=O)O)ccc1S(=O)(=O)c1ccc(C)cc1
-3.7%	x	x	1%	Cc1noc(/C=C/N(C)C)c1S(=O)(=O)N1CCCC(C(=O)N2CCc3ccccc32)C1 (stereo unspecified)
-0.5%	x	4%	-7%	Cc1c(NC(=S)NC(=O)c2ccccc2Cl)c(=O)n(-c2ccccc2)n1C
2.7%	x	-58%	2%	Cc1c(C(=O)N2CCN(C)CC2)oc2ccc(Br)cc12

Next structures:
Rango-impB inh	GLA inh pH 4.5	miR-21 FLuc	Rango release inh	Molecule
-1.7%	-3	-1%	16%	Cc1ccc2sc(C)[n+](CCO)c2c1
-2.3%	2	-4%	21%	CCCCc1ccc(NC(=S)NCCN2CCOCC2)cc1
-1.3%&-1.4%	6	-9%	-1%&11%	C/C(N)=C(/C#N)C(=O)COC(=O)c1cc(-c2ccc(Br)cc2)nc2ccccc12
-2.9%	x	2%	2%	COCCn1c(SCC(=O)N2CCOCC2)nc2c(c1=O)SCC2
0.0%	4	-2%	1%	O=C(NCCN1CCN(c2ccccc2F)CC1)C1CC(=O)N(C2CCCC2)C1 (stereo unspecified)
1.0%	1	-17%	-24%	O=C(NC(=S)Nc1ccc(S(=O)(=O)Nc2nccs2)cc1)c1ccc(F)cc1
0.8%	x	x	10%	C=CCC[C@H](Cc1ccc(F)cc1)C(=O)OC[C@@H](Cc1c[nH]c2ccccc12)NC(=O)[C@@H](CC=C)CC(=O)NCCO
u	x	6%	8%	CNC(=O)c1ccc(Nc2nnc(-c3ccc(O)cc3)c3ccccc23)cc1
-2.0%	11	23%	13%	CCOc1ccccc1NC(=O)c1cc(SC)ccc1Cl
-0.6%	-5	0%	-2%	CCC(C)(C)n1nnnc1C(c1ccc(OC)c(OC)c1)N1CCN(c2ccccc2)CC1 (stereo unspecified)
2.8%	5	-9%	1%	COCCN(Cc1cc2ccc(C)c(C)c2nc1Cl)C(=O)N1CCOCC1
1.0%	2	7%	2%	CC1(c2ccccc2)CC(C)(C)N(C(=O)C2CCCO2)c2ccccc21 (stereo unspecified)
-1.9%	-3	-2%	11%	O=c1[nH]c2ccccc2c(O)c1-[n+]1ccccc1
0.9%	-20&4	1%	16%	COC(=O)[C@@H]1C[C@@]2(O)[C@H](O)[C@H](O)[C@H](O)C[C@H]2N1CC1CC1
u	-2	2%	-13%	Cc1cccc(C)c1Nc1nnc(SCc2nc3ccccc3c(=O)[nH]2)s1
3.0%	-5	-11%	-5%	O=C(Nc1ccccc1C(=O)O)c1cncc(Br)c1
-0.5%	9	-7%	-10%	Nc1nc(SCC(=O)Nc2ccc(Oc3ccccc3)cc2)n[nH]1
-0.1%	-4	3%	-8%	O=C(Nc1nccs1)c1cc(S(=O)(=O)N2CCOCC2)ccc1Cl
-0.5%	6	1%	2%	CC1CCN(c2ccc(S(=O)(=O)Nc3cc(C(=O)O)cc(C(=O)O)c3)cc2[N+](=O)[O-])CC1
3.0%	-2	2%	-10%	CCOc1cc(C(=O)OCC(=O)c2c(N)n(C)c(=O)n(C)c2=O)cc(OCC)c1OCC

The listing continues:
Rango-impB inh	GLA inh pH 4.5	miR-21 FLuc	Rango release inh	Molecule
-0.6%	2	0%	15%	CSc1ccccc1NC(=S)Nc1ccc(S(N)(=O)=O)cc1
3.9%	x	x	-8%	C=CCN(c1ccccc1)S(=O)(=O)c1cccc(C(=O)NC2CCN(Cc3ccccc3)CC2)c1
-1.4%	1&0	x	-3%	Cc1c(Nc2ncccc2C(=O)O)cccc1C(F)(F)F
-2.6%	1	3%	11%	Cc1ncoc1C(=O)N1CCCC(C(=O)c2cccc(OC(C)C)c2)C1 (stereo unspecified)
1.2%	x	7%	-2%	Cc1cccc(NC(=O)Cn2cc(C(=O)C3CC3)c3ccccc32)c1
-1.2%	0	14%	7%	Cc1ccc(O)c(C=Nc2ccc3[nH]ncc3c2)c1
-0.2%	11	-16%	6%	Cc1cc(N2CCN(C)CC2)nc2ccc(NC(=O)CCC(=O)NCCC(C)C)cc12
5.6%	x	x	-15%	O=C(Nc1nccs1)OCc1ccccc1
5.9%	-5	-22%	-13%	Cc1cc(Oc2ccc(N)cn2)ccc1Cl
-0.6%	6	-23%	-16%	Cc1ccc(-c2noc(CCC(N)=O)n2)cc1
1.7%	x	0%	23%	Cc1onc(-c2ccccc2)c1C(=O)Nc1nnc(C(C)(C)C)s1
-8.7%	x	x	10%	Cc1ccc(NC(=O)C(C)Oc2ccccc2)cc1S(=O)(=O)N1CCCCCC1 (stereo unspecified)

4 compounds from above, reduced to Rango release inh, miR-21 FLuc and GLA inh pH 4.5.
SMILES,Rango release inh,miR-21 FLuc,GLA inh pH 4.5
Cc1c(Nc2ncccc2C(=O)O)cccc1C(F)(F)F,-3%,x,1&0
Cc1ncoc1C(=O)N1CCCC(C(=O)c2cccc(OC(C)C)c2)C1 (stereo unspecified),11%,3%,1
Cc1cccc(NC(=O)Cn2cc(C(=O)C3CC3)c3ccccc32)c1,-2%,7%,x
Cc1ccc(O)c(C=Nc2ccc3[nH]ncc3c2)c1,7%,14%,0
